miR-21 reporter – qHTS Assay for Modulators of miRNAs and/orActivators of miR-21. HeLa miR-21 FLuc reporter, luciferase, 48 h. Potency, µM (highest dose often 38.3 µM), for the others: top-dose reporter change, positive = more light. 340,000 tested, under 10 active. AID 2288, 2010; active = well fitted rising curve with a large enough effect; inconclusive = small, poorly fitted or top-dose-only effect; inactive = no such curve, though single readings can be large or run the other way;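 further: % of control where 0% means no effect; miR-21 action dims this reporter so a rising signal means less miR-21 action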
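Compounds were titrated across several concentrations (up to approximately 40 uM) and incubated 48 hours with HeLa miR-21-FLuc reporter cells (miR-21 target sequence downstream of FLuc, endogenous miR-21). Readout was firefly luciferase luminescence after lytic detection reagent.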
* marks the source's active call; other numbers are inactive results; ? = inconclusive. Some of the compounds tested; count on the stated rates, not on these rows.

The opening 2 compounds as a preview:
SMILES	miR-21 reporter
COc1cc(OC)c(NC(=O)c2c3c(nc4ccccc24)C(=O)N(C2CCCCC2)C3)cc1Cl	-0.7%
O=C(NCc1cccc(F)c1)c1ccc(CS(=O)c2ccccc2Cl)o1 (stereo not drawn)	0.1%

Results, previewed entries included:
SMILES	miR-21 reporter
COc1cc(OC)c(NC(=O)c2c3c(nc4ccccc24)C(=O)N(C2CCCCC2)C3)cc1Cl	-0.7%
O=C(NCc1cccc(F)c1)c1ccc(CS(=O)c2ccccc2Cl)o1 (stereo not drawn)	0.1%
CCOC(=O)c1c(C)[nH]c(C)c1S(=O)(=O)N1CCCC(C(=O)Nc2cc(C)ccc2C)C1 (stereo not drawn)	-1.8%
Cc1ccc(Nc2sc(C(=O)c3ccccc3)c(N)c2C(=O)NC(C)C)cc1	9.2%
CCOC(=O)c1c(NC(C)=O)c2c3c(sc2n1Cc1ccc(Cl)cc1)CCCC3	1.2%
CCn1c(=O)c2sccc2n2c(CCC(=O)Nc3ccc(C(C)C)cc3)nnc12	12.2%
COc1ccc(-c2noc(C3CC(=O)N(c4cc(C)cc(C)c4)C3)n2)cc1 (stereo not drawn)	3.9%
CCOC(=O)c1cc(OC(=O)c2cccc(C)c2)n(-c2ccccc2)n1	8.0%
Cc1ccc(C)c(NC(=O)c2nnn(Cc3ccc(F)cc3Cl)c2N)c1	?
CCOc1ccc(-n2c(=O)c3c(C)c(C)sc3n(Cc3c(F)cccc3Cl)c2=O)cc1	0.1%
Cc1ccc(CCNC(=O)c2sc3ncccc3c2-n2c(C)ccc2C)cc1	6.5%
COc1ccc(Cl)cc1NC(=O)CSC1=Nc2ccccc2C2=NC(CC(=O)NCc3cccs3)C(=O)N12 (stereo not drawn)	18.5%
CSc1ncc(Cl)c(C(=O)Nc2c(C(=O)Nc3cccc(C)c3)oc3ccccc23)n1	-2.6%
Cc1ccc(C)c(NC(=O)c2cc(S(=O)(=O)NCCc3ccccc3)ccc2F)c1	5.5%
Cc1ccc(C)c(N2CCN(C(=O)c3cnc4c(-c5ccccc5)c(C)nn4c3C)CC2)c1	-1.8%
CCN(CC)S(=O)(=O)c1nnc(NC(=O)c2ccc(C)cc2)s1	-6.5%
CCOC(=O)c1c(N)n(-c2ccc(Cl)c(Cl)c2)c2nc3ccccc3nc12	-0.4%
CC(=O)Nc1c(C)nn(-c2ccccc2)c1N1CCC(C(=O)NCc2ccccc2Cl)CC1	3.0%
COC(=O)C(NC(=O)CCc1c(C)nc2c(-c3ccccc3)c(C)nn2c1C)C(C)C (stereo not drawn)	11.0%
COc1cccc(CNC(=O)c2ccc3c(c2)N(Cc2ccc(C(F)(F)F)cc2)C(=O)c2ccccc2S3)c1OC	1.5%
O=C(Nc1nnc(N2CCCC2)s1)Nc1cc(F)ccc1F	-3.4%
O=C(NCc1ccccc1)c1ccc(CNS(=O)(=O)c2ccc(Br)cc2)cc1	3.2%
CCCc1nnc(NC(=O)C(CC)Sc2nnc3c4ccccc4n(C)c3n2)s1 (stereo not drawn)	-2.9%
Cc1cc(C)cc(-n2c(SCC(=O)N3CCOCC3)nc3c([nH]c4ccccc43)c2=O)c1	-4.9%
CNC(=O)c1c(NC(=O)Cc2coc3ccc(OC)cc23)sc2c1CCCC2	11.2%

The list goes on, overlapping the part above by two compounds.
SMILES	miR-21 reporter
Cc1cc(C)cc(-n2c(SCC(=O)N3CCOCC3)nc3c([nH]c4ccccc43)c2=O)c1	-4.9%
CNC(=O)c1c(NC(=O)Cc2coc3ccc(OC)cc23)sc2c1CCCC2	11.2%
Cc1ccc(Nc2nnc(-c3cc4c(ccc5ccccc54)oc3=O)s2)cc1	1.1%
COc1cccc(NC(=O)Cn2c(=O)n(-c3ccc(Cl)cc3)c(=O)c3oc4ccccc4c32)c1	-21.6%
CCN(CC)S(=O)(=O)c1ccc(NC(=O)c2c(C)oc3ncnc(N4CCCCC4)c23)cc1	11.1%
CC1CCN(S(=O)(=O)c2ccc3c(c2)CCN3C(=O)Nc2ccc(Br)cc2)CC1	-31.5%
CCC(=O)N1CCc2cc(S(=O)(=O)N(C)c3cccc(C)c3)ccc21	-9.2%
O=C(CCCn1c(=O)[nH]c2ccc(Br)cc2c1=O)N1CCN(c2cccc(Cl)c2)CC1	?
CC(C)c1ccc(NC(=O)Cn2cc(S(=O)(=O)Cc3cccc(Cl)c3)c3ccccc32)cc1	-5.9%
Cc1ccc(CNC(=O)C2CCCN(c3nn4cc(-c5ccc(C)cc5)nc4s3)C2)cc1 (stereo not drawn)	-51.0%
O=C(NCCCN1CCCCC1)c1[nH]c2ccccc2c1Sc1ccc(Cl)cc1	-5.3%
COc1cccc(-c2ccc3c(N)c(C(=O)Nc4ccc(C)c(F)c4)sc3n2)c1	-11.0%
Cc1ccc(CNC(=O)CCCCn2c(=O)c3ccccc3n(Cc3ccc(Cl)cc3)c2=O)cc1	2.7%
COc1ccc(S(=O)(=O)n2nc(C)c(S(=O)(=O)N3CCC(C)CC3)c2C)cc1OC	-0.6%
CC(=O)Nc1ccc(Nc2nc3c(S(=O)(=O)c4cccc(Cl)c4)nnn3c3ccsc23)cc1	-2.0%
CCOC(=O)c1c(NC(=O)/C=C/c2ccc(C)cc2)sc2c1CCCC2	-3.7%
CCc1ccc(C2CC(=O)c3c([nH]c(C(=O)OCc4ccc(C)cc4)c3C)C2)cc1 (stereo not drawn)	-0.7%
CCOc1ccc2nc(N3CCCC(C(=O)NCCc4ccc(SC)cc4)C3)sc2c1 (stereo not drawn)	-3.6%
C=C(C)Cn1c(=O)c2c(nc3n2CCN3c2cc(C)cc(C)c2)n(C)c1=O	19.1%
O=C(C1COc2ccccc2O1)N1CCN(c2nc3c(F)cccc3s2)CC1 (stereo not drawn)	6.2%
Cc1ccc(NC(=O)Cn2cc(C(=O)c3cccs3)c3ccccc32)cc1C	25.5%
O=C(CN1C(=O)C2CCCCN2c2ccc(C(=O)N3CCCC3)cc21)NCc1cccc(Cl)c1 (stereo not drawn)	1.8%
CCOCCCNC(=O)c1ccc2c(=O)n(CCc3ccc(OC)c(OC)c3)c(=O)[nH]c2c1	14.0%
CCOC(=O)c1ccc(NC(=O)c2cn(-c3ccccc3)nc2-c2ccc(C)cc2)cc1	-4.2%
Cc1ccc(-c2nc(CS(=O)CC(=O)NCc3ccccc3Cl)c(C)o2)cc1 (stereo not drawn)	5.7%
COc1ccc(C(=O)NNc2ncnc3c2cnn3-c2ccccc2)cc1	-0.9%
COc1ccccc1C(=O)Nc1c(C(=O)N(C)c2ccccc2)sc2nc(C)cc(C)c12	-0.4%

(list continues)
SMILES	miR-21 reporter
CCC(=O)N1CCc2cc(OC)c(OC)cc2C1COc1ccc2c(C)cc(=O)oc2c1 (stereo not drawn)	-4.3%
COc1ccc(-c2coc3c2c(C)cc2oc(=O)c(CC(=O)O)c(C)c23)cc1	-11.4%
COCCN1CCN(Cc2ccc(C(=O)NC(C)C)cc2)C(=O)C1=O	0.3%
CCc1nc(SCC(=O)Nc2ccc(NC(C)=O)cc2)n[nH]1	-1.5%
CCOC(=O)c1cccc(NS(=O)(=O)c2ccc(-c3cnc(C4CC4)o3)cc2)c1	20.4%
O=C(CCc1ccccc1)N(Cc1cccnc1)c1nc2ccc(F)cc2s1	-13.9%
O=C(NCc1ccccc1)C(=O)NCC(c1ccco1)S(=O)(=O)c1ccccc1 (stereo not drawn)	-1.4%
COc1ccc2cc3cc(C(=O)Nc4ccccc4C)oc3nc2c1	-1.1%
Cc1ccc(Cl)cc1N1CCN(C(=O)c2ccc3c(c2)CCN3S(C)(=O)=O)CC1	25.4%
CCCN(C(=O)c1cc2c(=O)oc3ccccc3c2s1)c1cccc(Cl)c1	6.7%
O=C(c1ccc2c(c1)N(Cc1ccccc1F)C(=O)c1ccccc1S2(=O)=O)N1CCOCC1	0.2%
O=C(CCl)N1c2ccccc2CCc2ccccc21	?
CC(C)c1cnc2c(c1SCc1ccc([N+](=O)[O-])cc1)c(=O)n(C)c(=O)n2C	-3.2%
COc1ccc(OC)c(NC(=O)c2cc3cc4ccc(C)cc4nc3s2)c1	-5.0%
CCC(=O)Nc1cc(C)c(O)c(-c2nc3ncccc3o2)c1	4.7%
COc1cccc(NS(=O)(=O)c2ccc3[nH]cc(C(=O)NC(C)c4ccccc4)c(=O)c3c2)c1 (stereo not drawn)	16.8%
COc1ccc2c(c1)CC(C(=O)NCCN1CCN(c3cccc(C)c3C)CC1)CO2 (stereo not drawn)	14.0%
CCCc1nn2c(=O)cc(COC(=O)c3ccc(NC(=O)C(C)Oc4ccccc4)cc3)nc2s1 (stereo not drawn)	6.0%
COc1ccc(CCNC(=O)Cc2c(C)c3c(cc(C)c4c(C)coc43)oc2=O)cc1	7.1%
CC(C)Oc1ccc(C(=O)Nc2ccc3oc(-c4ccncc4)nc3c2)cc1	-6.2%
O=C(NCc1ccccc1Cl)c1cc(=O)[nH]c2ccc(S(=O)(=O)N3CCCCC3)cc12	-3.2%
COC(=O)c1c(SC)nc2ccccc2c1OCc1cccc(C)c1	-0.3%
O=C(CSc1nnc(-c2ccc([N+](=O)[O-])cc2)o1)Nc1ccccc1	-1.4%
COc1ccc(OC)c(-c2cc(C(=O)Nc3ccc(C)c(C)c3)no2)c1	-39.9%
Cc1ccnc(N2C(=O)c3ccc([N+](=O)[O-])cc3C2=O)c1	-0.2%

Copied from the list.
Result of `O=C(NCc1ccccc1)C(=O)NCC(c1ccco1)S(=O)(=O)c1ccccc1` (stereo not drawn) in miR-21 reporter: -1.4%
Result of `COc1ccc2cc3cc(C(=O)Nc4ccccc4C)oc3nc2c1` in miR-21 reporter: -1.1%
Result of `CC(C)Oc1ccc(C(=O)Nc2ccc3oc(-c4ccncc4)nc3c2)cc1` in miR-21 reporter: -6.2%
Result of `O=C(CSc1nnc(-c2ccc([N+](=O)[O-])cc2)o1)Nc1ccccc1` in miR-21 reporter: -1.4%
Result of `CCC(=O)N1CCc2cc(OC)c(OC)cc2C1COc1ccc2c(C)cc(=O)oc2c1` (stereo not drawn) in miR-21 reporter: -4.3%

Next compounds.
SMILES	miR-21 reporter
COc1ccc(OCC(=O)Nc2c(C(=O)N3CCN(c4ccccc4)CC3)oc3ccccc23)cc1	-7.1%
CCCOc1ccc(C2C(=O)N(C3CCCCC3)CC(=O)N2CCc2ccccc2)cc1OC (stereo not drawn)	-7.4%
COc1ccc(C)c2sc(N(Cc3cccnc3)C(=O)C3CCCCC3)nc12	-10.9%
Cc1ccc(-n2ncc3c(NC4CCCC4)ncnc32)cc1	20.0%
CC(NC(=O)c1cc(-c2ccc(Cl)cc2)on1)c1ccccc1 (stereo not drawn)	-14.2%
O=C(CCOc1ccccc1)N(Cc1cccnc1)c1nc2c(F)cc(F)cc2s1	-8.3%
CCOc1ccc(S(=O)(=O)N(CC(=O)NCCSCc2ccccc2)c2ccccc2)cc1	-0.2%
COc1ccc(Cl)cc1Nc1ncnc2c1nc1n2CCCC1	9.7%
CCOC(=O)c1scc(-c2ccc(C)cc2)c1S(=O)(=O)Nc1cc(Cl)ccc1OC	16.2%
CCOc1ccc(/C=C/c2nc(C#N)c(NCc3ccc(OC)cc3)o2)cc1	-12.4%
COCCn1c(CNC(=O)c2ccc(C)cc2)nc2cccnc21	-8.9%
Cc1ccc(C)c(N2CCN(C(=O)C3CCN(Cc4nc(-c5cccc(Cl)c5)oc4C)CC3)CC2)c1	-0.1%
COC(=O)c1ccc(NS(=O)(=O)c2ccc3[nH]c4c(c3c2)CCCCC4)cc1	?
CCC(C)Nc1ncnc2c1cnn2-c1ccc(F)cc1 (stereo not drawn)	-35.1%
COc1ccc(Br)cc1CNCc1c(C(=O)O)c(C)n(Cc2ccccc2C)c1C	4.7%
CCOc1ccc(NC(=O)C2CCCN(c3nnc(C)c4c(C)n(-c5ccccc5)nc34)C2)cc1 (stereo not drawn)	22.0%
Cc1ccc(C2CC(=O)n3nc(-c4ccc(Cl)cc4)nc3S2)cc1 (stereo not drawn)	2.8%
CCOC(=O)c1ccc(NC(=O)C2=C(C)C(=O)OC23CCCCCC3)cc1	14.1%
COc1ccc(S(=O)(=O)N(CC(=O)Nc2cccc(C)c2)c2ccc(C)cc2)cc1OC	1.5%
Cc1ccc(Nc2c(-c3ccc(N4CCOCC4)cc3)nc3ccc(Cl)cn23)cc1	-0.5%
COc1ccc(CCNC(=O)Cn2c(=O)cc(C(F)(F)F)c3c(C)nn(C)c32)c(OC)c1	9.5%
O=C(NCCc1csc(-c2ccc(Cl)cc2)n1)c1cccs1	20.8%
CCCc1cc(=O)[nH]c(Nc2ccc(C(=O)O)cc2)n1	0.1%
COc1ccc(N2CCN(c3ncnc4c3cnn4-c3ccc(C)c(Cl)c3)CC2)cc1	-3.1%
CCOC(=O)c1cc(-c2ccc(OC)cc2)n(CCC(=O)Nc2cccc(C(C)=O)c2)c1C	18.6%

Next section
SMILES	miR-21 reporter
COC(=O)c1ccccc1NC(=O)C1CCCN(C(=O)c2cnn(-c3ccc(F)cc3)c2-n2cccc2)C1 (stereo not drawn)	0.2%
COC(=O)c1scc(-c2ccc(C)cc2)c1S(=O)(=O)Nc1cc(Cl)c(OC)cc1OC	-7.7%
CCOc1ccccc1NC(=O)CSc1nc2cc(OC)c(OC)cc2c2nc(-c3ccccc3)nn12	0.5%
CCCCN(CC)C(=O)Cn1nc(C)c2c(C)n(-c3ccccc3)nc2c1=O	-0.3%
Cc1cccc(CNC(=O)c2ccc(Cn3c(SCc4cccc(F)c4)nc4cccnc43)cc2)c1	10.9%
Cc1ccc(C)c(CNC(=O)c2ccc3c(c2)nc2n3CCOC2)c1	-27.4%
CCc1ccc(NC(=O)CC2C(=O)N(c3ccccc3)C(=O)N2C(C)C)cc1 (stereo not drawn)	-49.3%
Cc1ccc(CSc2nc3cccnc3n2Cc2ccc(C(=O)NC3CC3)cc2)cc1	-47.8%
Cc1cccc(Cn2c(=O)n3nc(-c4ccccc4)nc3c3ccccc32)c1	25.6%

Screens (PubChem)
